2A firefly – Primary qHTS Assay for Foot and Mouth Disease Virus Antivirals against NCGC Sytravon and CBC Compound Libraries: Firefly Luciferase Signal; HEK cells with a luciferase reporter of 2A StopGo recoding; Potency, µM (top dose mostly 57.5 µM), for the others: at the top dose signal change, negative = less light; 120,000 tested, 0.23% active; AID 1745856, 2022; active = well fitted falling curve with a large enough effect; inconclusive = small, poorly fitted or top-dose-only effect; inactive = no such curve, though single readings can be large or run the other way; also: nearly all actives have a fitted effect of over 60% in size; overnight with compound
StopGo RLuc – Primary qHTS Assay for Foot and Mouth Disease Virus Antivirals against NCGC Sytravon and CBC Compound Libraries: Renilla Luciferase Signal; HEK cells with a luciferase reporter of 2A StopGo recoding; Potency, µM (doses to about 57.5 µM), without a hit: top-dose signal change, negative = less light; 120,000 tested, 0.32% active; AID 1745857, 2022; active means well fitted falling curve with a large enough effect; inconclusive means small, poorly fitted or top-dose-only effect; inactive means no such curve, though single readings can be large or run the other way; also: nearly all actives have a fitted effect of over 55% in size; overnight with compound
Starred values were filed as active, the others as inactive; ? = inconclusive; [ ] = another dose, or the depositor's remark. % is scaled to controls: 0 for no effect and ±100 for the full control effect; potency is read from the fitted curve at half-maximal effect.

SMILES	2A firefly	StopGo RLuc
CCC(=O)NC(C)c1cccs1 (configuration not stated)	0%	2%
Cc1cccc(NC(=O)Cc2nc(-c3cc(C)n(-c4cc(C)on4)c3C)cs2)c1	4%	-3%
COc1ccc(NC(=O)Cn2c(SCc3cc(C)ccc3C)nc3ccncc32)cc1OC	7%	-10%
CC(C)CC(=O)n1nc(-c2cccnc2)nc1NCc1ccc(F)cc1	16%	-9%
O=C(CCC(=O)c1cccs1)NCCC(=O)Nc1ccc(F)c(Cl)c1	4%	-4%
O=Cc1ccc(-c2ccc(Br)cc2Br)o1	-3%	-9%
COC(=O)c1scc(-c2ccc(C)cc2)c1S(=O)(=O)Nc1ccc(OC(F)(F)F)cc1	8%	29%
Cc1ccc2c(CC(=O)Nc3ccc(S(=O)(=O)N4CCCCC4C)cc3)coc2c1C (configuration not stated)	-11%	19%
Cc1ccc(NC(=O)Nc2nnc(N3CCCC3)s2)c(C)c1	-6%	-10%
CCn1cc(C(=O)NCc2ccc(C)cc2)c(=O)c2cc(S(=O)(=O)N3CCC(C)CC3)ccc21	-25%	-6%
CCCc1ccc(NC(=O)Cc2c[nH]c3ccccc23)cc1	166%[activator]	58%[activator]
Cc1cccc(C)c1OCC(=O)N(Cc1ccco1)Cc1ccco1	-23%	59%[activator]
CCC(Cc1ccccc1)NC(=O)c1csc2c1CCCCC2 (configuration not stated)	0%	0%
CCN(CC)CCCC(C)NC(=O)C(CC(C)C)NC(=O)OC (configuration not stated)	1%	3%
CCc1ccccc1NC(=O)c1ncoc1-c1cccc(C)c1	5%	-2%
Cc1ccc(-c2nc(NC(=O)c3cc(C)on3)sc2C)cc1	45%[activator]	-4%
COc1ccccc1NC(=O)C1=C(C)Nc2nc3ccccc3n2C1c1cccc(OC)c1OC (configuration not stated)	-10%	-14%
O=C1OCCC1Sc1ncccc1Cl (configuration not stated)	6%	5%
CCOc1ccc(-c2ccc(C#N)c(SCC(=O)Nc3ccc(F)cc3)n2)cc1	4%	6%
CCCn1c(C)cc(C(=O)CSc2nnc(COc3ccc(Cl)cc3)n2C)c1C	11%	52%[activator]
CCc1ccc(C2=C(C)C(N3CCC(C(=O)NCCc4ccco4)CC3)=NS2(=O)=O)cc1	?	10%
CCNC(=O)c1cccc(NC(=O)CCc2ncc(-c3ccccc3F)o2)c1	28%	-2%
CCOC(=O)c1ccc2c(c1)N(Cc1cccc(C(F)(F)F)c1)C(=O)c1ccccc1S2(=O)=O	-15%	24%
CCOc1cc(/C=C2/NC(=O)NC2=O)cc(I)c1OCC(=O)OC	-3%	1%
Cc1ccc(O)c(Nc2nc3ccccc3c3nncn23)c1	-18%	20%
CC(C)c1ccc(S(=O)(=O)Nc2ccc3c(c2)CCN3S(C)(=O)=O)cc1	?	34%[activator]
COc1ccc(NC(=O)c2c(C)oc3ccc(O)c(CN4CCN(Cc5ccccc5)CC4)c23)cc1	-17%	-4%
CCC(=O)Nc1ccc2oc(-c3cc(F)c(F)cc3Cl)nc2c1	98%[activator]	-6%
Cc1nn(CC(=O)NCC(C)c2ccccc2)c(=O)c2cc3ccccc3n12 (configuration not stated)	7%	0%
CCOc1ccccc1NC(=O)CN1c2ccccc2S(=O)(=O)c2ccccc21	-17%	-13%
CCc1ccc(Nc2ncnc3sc4c(c23)CCCC4)cc1	23%	1%
O=C(NCc1ccc2c(c1)OCO2)c1cccc(Oc2ccnc(-c3ccc(F)cc3)n2)c1	?	?
Cc1ccccc1-c1nc(CNC(=O)Nc2ccccc2)c(C)o1	4%	115%[activator]
CC(C)(C)CC(=O)Nc1nnc(C2CC(=O)N(c3ccc(Cl)cc3)C2)s1 (configuration not stated)	-10%	-7%
CCc1ccc(NC(=S)N(CC)c2ccccc2)cc1	92%[activator]	12%
Cc1cc(=O)oc2cc(OCC(=O)Nc3ccc4ccccc4c3)ccc12	1%	-8%
CC1=C(C(=O)Nc2ccccn2)C(c2ccc3c(c2)OCO3)n2ncnc2N1 (configuration not stated)	26%	0%
CCCCn1cc(S(=O)(=O)c2ccc(OCC)cc2)c(=O)c2cc(OC)c(OC)cc21	-8%	58%[activator]
COc1ccc2c(C)c(CCC(=O)NCc3ccc(S(N)(=O)=O)cc3)c(=O)oc2c1	0%	-11%
Cc1nn(C)cc1CNC(=O)c1cc2nc(-c3ccc(Cl)s3)cc(C(F)(F)F)n2n1	2%	9%
Cc1ccc(C(=O)C(C)OC(=O)c2ccc3ccccc3n2)cc1 (configuration not stated)	1%	-15%
CCC(CC)=C(C#N)C(=O)NC1CC1	-2%	15%
Cc1cccc(NC(=O)c2ccc3c(O)c(S(=O)(=O)c4ccccc4)c(=O)[nH]c3c2)c1C	-9%	-8%
CC(C)CCNC(=O)c1cccc2ncccc12	16%	8%
CCNC(=O)c1c(NC(=O)c2cc(=O)c3ccc(C)c(C)c3o2)sc2c1CCCC2	14%	8%
COc1ccc(CNC(=O)CCCc2nnc3n(CCC(C)C)c(=O)c4sccc4n23)cc1	-6%	-6%
O=C1CN(S(=O)(=O)c2c(Cl)cccc2Cl)CCN1	9%	-1%
O=C(CCc1cc(Cl)no1)N(CCS(=O)(=O)N1CCCC1)Cc1ccncc1	-17%	-13%
NNC(=S)Nc1ccccc1	167%[activator]	0%
CC(=O)Nc1ccc(NC(=O)c2cc(=O)c3ccc(C)c(C)c3o2)cc1	9%	16%
OC[C@H]1O[C@H](O[C@]2(CCl)O[C@H](CCl)[C@@H](O)[C@@H]2O)[C@H](O)[C@@H](O)[C@H]1Cl	-15%	-8%
Cc1ccccc1OCC(O)CN1CCN(c2nccs2)CC1 (configuration not stated)	-5%	-12%
Cc1ccc(OCc2nc(-c3ccccc3OCC(=O)N3CCCCCC3)no2)cc1	180%[activator]	9%
O=C(NCCc1ccccc1)c1ccc(Cn2c(SCc3ccccc3F)nc3cccnc32)cc1	23%	-7%
Cc1cccc(CS(=O)(=O)Cc2ccc(C(=O)NCc3ccccc3)o2)c1	-12%	3%
O=C(O)CNS(=O)(=O)c1c(Cl)cc(Br)cc1Cl	-11%	-4%
COc1cccc(CNC(=O)Cn2c(=O)cc(C)c3c(C)nn(C)c32)c1OC	?	?
CC(C)c1ccc(NC(=O)CN(C)C2=NS(=O)(=O)c3ccccc32)cc1	12%	8%
O=C(Nc1ccc2oc(-c3cccc(I)c3)nc2c1)c1ccc2c(c1)OCO2	2%	-8%
CN(C)S(=O)(=O)c1ccc(Cl)c(C(=O)NCc2ccc(N3CCCC3)nc2)c1	17%	10%
New compounds follow.
SMILES	2A firefly	StopGo RLuc
Cc1ccc2[nH]c3c(=O)n(CC(=O)N(C)c4cc(Cl)ccc4C)ncc3c2c1	-11%	-16%
CC(=O)Nc1ccc(N=CC2=C(O)CC(C)(C)CC2=O)cc1	6%	7%
Cc1ccc(-c2noc(-c3cc(-c4ccc(F)cc4)n[nH]3)n2)cc1	9%	-4%
Cc1ccc2c(CN3CCC(O)CC3)cc(=O)oc2c1C	52%[activator]	-6%
CCOc1ccccc1CNC(=O)Cn1nc(C)c2nn(-c3ccc(Cl)cc3)c(C)c2c1=O	-15%	-12%
C=CCNCc1sccc1C	0%	-6%[1.06 µM]
CC(C)c1ccc(/C=C/C(=O)c2ccc(O)c(CCCl)c2)cc1	0%	0%
CCOc1ccccc1C(=O)Nc1nnc(COC)s1	35%[activator]	-6%
CSc1ccc(CNC(=O)Cn2ccc3cc(S(=O)(=O)N4CCCC4)ccc32)cc1	19%	33%[activator]
CN(C)C1(CNCc2csc(-c3ncccn3)n2)CCCC1	80%[activator]	-4%
Cc1ccc(Cl)cc1N1CCN(C(=O)Cn2cnc3nc4c(cc3c2=O)CCCC4)CC1	?	?
O=C(NCCc1ccc(F)cc1)C1CC=CCC1 (configuration not stated)	0%	6%
Cc1ccc(C2C3=C(CCCC3=O)Nc3nc(SCCC(C)C)[nH]c(=O)c32)o1 (configuration not stated)	16%	3%
Cc1ccc(-c2nc(CNc3ccc(Br)cc3)no2)cc1	132%[activator]	48%[activator]
COc1nc2ccccc2nc1N1CCC(C(=O)Nc2cc(C)cc(C)c2)CC1	7%	0%
CC(CC(=O)Nc1ccc2c(c1)CCC2)c1ccccc1 (configuration not stated)	216%[activator]	62%[activator]
CCS(=O)(=O)N1CCc2cc(C(=O)CSc3ccc(F)cc3F)ccc21	142%[activator]	6%
O=c1c2ccccc2nnn1CSc1nnnn1-c1ccc(O)cc1	29%	-12%
Cc1oc(-c2ccccc2)nc1C(=O)NC(C1CC1)C1CC1	1%	-3%
COCCOc1ccc2c(C)cc(=O)oc2c1	51%[activator]	11%
Cc1ccc(-c2cn3c4ccccc4nc3n2CCCN2CCCC2)cc1	0%	-18%
Cc1ccc(CNC(=O)CSc2nc3n[nH]c(C)c3c(=N)n2-c2ccccc2Cl)cc1	-22%	-14%
O=C(Nc1cccnc1)c1cc(-c2ccccc2)nc2ccccc12	12%	3%
CN(CCOc1ccc(Br)cc1)C(=O)c1cc(=O)[nH]c2ccccc12	?	-18%
Cn1c(=O)c2c(nc(SCC(=O)OCc3ccccc3)n2Cc2ccccc2Cl)n(C)c1=O	4%	-4%
O=C(CSc1nccn1Cc1ccc(F)cc1)Nc1ccc2c(c1)OCO2	0%	0%
CCOc1ccc(-c2nc(CN3CCCC(O)C3)cs2)cc1OC (configuration not stated)	0%	-2%
O=C(Cc1ccc(-c2ccccc2)cc1)NCCc1ccccn1	0%	11%
CN(C)C(CNS(=O)(=O)c1ccccc1)c1ccsc1 (configuration not stated)	21%	21%
NC(N)=N/N=C/c1cccc(Cl)c1Cl	17%	-14%
CCOC(=O)c1cc(NC(=O)c2cccc(C)c2)c(=O)n2c1oc1ccccc12	16%	9%
CSCC[C@H](NC(=O)[C@H](Cc1c[nH]c2ccccc12)NC(=O)CCNC(=O)OC(C)(C)C)C(=O)N[C@@H](CC(=O)O)C(=O)N[C@@H](Cc1ccccc1)C(N)=O	-8%[11.5 µM]	-3%
COCCNC(=O)/C=C/c1ccc(C(C)(C)C)cc1	127%[activator]	25%
CN(C)CCNc1ccc([N+](=O)[O-])c2cccnc12	1%	-15%
CCOC(=O)c1cnc2ccc(OCC)cc2c1Nc1cc(C)ccc1OC	-1%	-2%
COc1ccc(-c2nnsc2C(=O)NC(C)CCc2ccccc2)cc1 (configuration not stated)	-4%	-9%
CCOc1ccc(-n2nc3ccc(NC(=O)c4ccc(C)cc4C)cc3n2)cc1	-10%	-5%
CCc1cccc(CC)c1NC(=O)c1c(C)oc2ccc(O)c(CN3CCCC3)c12	-12%	-7%
COc1ccc(OC)c(C2CCCCC2O)c1 (configuration not stated)	11%	3%
CCc1ccc(C2c3cccn3-c3c(c(C)nn3-c3ccccc3)CN2C(=O)NCC(=O)OC)cc1 (configuration not stated)	-10%	10%
COc1ccc(NS(=O)(=O)c2ccc(-c3cnc(C4CC4)o3)cc2)cc1Cl	?	73%[activator]
Cc1ccccc1CNCCCSc1nnnn1-c1ccccc1	-3%	-12%
CC(C)Oc1ccc(CNC(=O)C2CCN(c3nc4ccccc4n(C)c3=O)CC2)cc1	-7%	-10%
COC(=O)c1ccc(/C=C2\NC(=S)N(C)C2=O)cc1	19%	8%
Cc1ccc(S(=O)(=O)N2CCN(C(=O)COC(=O)c3ccc4ccccc4c3)CC2)c(C)c1	5%	-11%

Single records, as listed above. Order of screens: 2A firefly | StopGo RLuc
Listed for COC(=O)c1ccc(/C=C2\NC(=S)N(C)C2=O)cc1 : 19% | 8%
Listed for COc1ccc(OC)c(C2CCCCC2O)c1 (configuration not stated) : 11% | 3%
Listed for CSCC[C@H](NC(=O)[C@H](Cc1c[nH]c2ccccc12)NC(=O)CCNC(=O)OC(C)(C)C)C(=O)N[C@@H](CC(=O)O)C(=O)N[C@@H](Cc1ccccc1)C(N)=O : -8%[11.5 µM] | -3%
Listed for COc1ccc(-c2nnsc2C(=O)NC(C)CCc2ccccc2)cc1 (configuration not stated) : -4% | -9%
Listed for COCCNC(=O)/C=C/c1ccc(C(C)(C)C)cc1 : 127%[activator] | 25%

(cont.)
SMILES	2A firefly	StopGo RLuc
COc1ccc(Cl)cc1NC(=O)Cn1cc(C(=O)c2ccc(C)cc2)c(=O)c2ccc(C)nc21	-21%	-20%
Cc1nc2nc(NC(=O)CC(C)C)[nH]n2c(=O)c1Cc1ccccc1	21%	7%
COc1ccc2[nH]cc(CCNC(=O)Nc3cccc(F)c3)c2c1	3%	2%
O=C(NC1CCCCC1)c1cc(Nc2cccc(C(F)(F)F)c2)nc2ccccc12	-2%	-5%
CC(C)CC(=O)Nc1cccc(-c2nc3cc(Cl)ccc3o2)c1	0%	8%
Cc1ccc(C(C)C)c(OCC(=O)Nc2cccc(NC(=O)c3ccco3)c2)c1	-10%	18%
CCOc1cccc2cc(-c3csc(Nc4cc(OC)ccc4OC)n3)c(=O)oc12	15%	5%
CC(C)Sc1nc2c(c(=O)n(C)c(=O)n2C)n1Cc1ccccc1Cl	3%	-8%
COc1ccc(C(=O)Nc2ccc3oc(-c4ccc5ccccc5c4)nc3c2)cc1[N+](=O)[O-]	118%[activator]	-2%

Entries above that contain two or more sulfur atoms (5):
SMILES	2A firefly	StopGo RLuc
COC(=O)c1scc(-c2ccc(C)cc2)c1S(=O)(=O)Nc1ccc(OC(F)(F)F)cc1	8%	29%
CC(C)c1ccc(S(=O)(=O)Nc2ccc3c(c2)CCN3S(C)(=O)=O)cc1	?	34%[activator]
CSc1ccc(CNC(=O)Cn2ccc3cc(S(=O)(=O)N4CCCC4)ccc32)cc1	19%	33%[activator]
CCS(=O)(=O)N1CCc2cc(C(=O)CSc3ccc(F)cc3F)ccc21	142%[activator]	6%
CN(C)C(CNS(=O)(=O)c1ccccc1)c1ccsc1 (configuration not stated)	21%	21%

Screening data deposited in PubChem by National Center for Advancing Translational Sciences (NCATS).

An excerpt. The share of hits here may be higher or lower than overall.
